# Screening data: PubChem, Center for Chemical Genomics, University of Michigan
# CDC25B-CDK2 inh = human CDC25B-CDK2/CyclinA binding inhibition; HTRF CDC25B-CDK2/CyclinA binding, anti-His/anti-Flag; stronger effect = higher value; 0.72% of 94,000 active; z-score (no concentration beside the values); P30305+P24941; AID 1259370;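 note: score is relative to mean and SD of negative controls; strong numbers were not always called active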
# HIV TAR-Tat = HIV-1 TAR-Tat binding disruption; AID 1259389; z-score (test concentration not listed); 0.6% of 100,000 active; HIV-1 TAR RNA, Tat peptide displacement FRET; stronger effect = higher value;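 note: score is relative to mean and SD of negative controls; some compounds called inactive have numbers as strong as hits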
# * = called active by the depositor; x = not tested or not shown.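 Rule for the calls: active = z-score from 3 up in half or more of its runs; inactive = the rest.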
SMILES,CDC25B-CDK2 inh,HIV TAR-Tat
OCCCNc1ncnc2c1c(-c1ccccc1)cn2-c1cccc(Cl)c1,-1.4,x
CC(C)CCN(Cc1ccco1)S(=O)(=O)c1ccc(-c2cc(C(F)(F)F)on2)s1,x,1.8
Cc1c(C(=O)Nc2ccc3c(c2)OCCO3)sc2ncn(CC(=O)N3CCCCC3C)c(=O)c12 (configuration not stated),x,2.6
Cn1c2ccccc2n2nc(-c3ccco3)nc12,-1.1,x
CS(=O)(=O)N1CCCC(C(=O)NCCCN2CCOCC2)C1 (configuration not stated),x,0.53
CC(=O)C1=C(O)c2cc(Cl)c(Cl)cc2C1=O,-1,x
O=C1CCCC2=C1C(c1cccs1)N(C(=O)Nc1ccc(F)cc1)c1ccccc1N2 (configuration not stated),x,1.5
Cc1ccc(CN2CCC(CNS(=O)(=O)c3cc(-c4cc(C)no4)ccc3C)C2)cc1 (configuration not stated),x,0.01
CCCCNc1nc2c(S(=O)(=O)c3ccc(C)cc3)nnn2c2ccccc12,-2.3,1.3
COc1ccc(S(=O)(=O)c2cnc3cc4c(cc3c2N2CCC(C(N)=O)CC2)OCCO4)cc1,-1.3,0.49
COc1ccccc1N1CCN(c2ncnc3c2cnn3-c2ccc(F)cc2)CC1,x,2.8
Cc1nc2ccc(S(=O)(=O)NC(C(=O)NC3CCCCC3C)C(C)C)cc2s1 (configuration not stated),-1.2,2
Cn1nc(C(=O)N2CCOCC2)c2c1-c1ccccc1S(=O)(=O)C2,-0.47,1.5
O=C(NC1CC1)c1cc2n(n1)C(C(F)(F)F)CC(c1ccco1)N2 (configuration not stated),-0.2,-2.6
N#Cc1c(NC(=O)c2noc3c2CCc2ccccc2-3)sc2c1CCC2,-0.57,x
O=C(CSc1ncnc2sc3c(c12)CCCC3)Nc1ccc2c(c1)OCCO2,-0.79,-0.41
Cn1c(NC(=O)c2cccs2)cc(=O)n(C)c1=O,x,2.2
COc1ccc(Oc2cc3c(cc2N)n(C)c(=O)c(=O)n3C)cc1,x,0.71
CS(=O)(=O)NCCc1csc2nc(-c3cccc(F)c3)nn12,x,1.5
O=C(Nc1cccc(F)c1)Nc1c[nH]c(=O)[nH]c1=O,-1.8,1.2
CCOC(=O)C1CCCN(S(=O)(=O)c2ccc(N3CCCCS3(=O)=O)cc2)C1 (configuration not stated),x,0.45
Cc1nc(N)[nH]c(=O)c1Br,0.46,x
CCOC(=O)c1c(C)nn(-c2ccc(NS(=O)(=O)c3c(C)noc3C)cc2)c1C,-0.63,x
N#Cc1cnc2c(-c3ccc(Cl)cc3)cnn2c1N,-3.1,0.65
CN(C(=O)c1cnc2sccn2c1=O)c1ccccc1,-1.4,-0.7
CC1(C(Cl)(Cl)Cl)C=CC(=Nc2ccccc2)C=C1 (configuration not stated),-1.2,x
COc1ccc(CCNc2nc3ccccc3n3nnnc23)cc1OC,-8.4,-3.9
O=S(=O)(c1ccc(-c2cnc(C3CC3)o2)cc1)N1CCc2ccccc21,x,-0.12
CC(C)NC(=O)c1sc(=S)n2c1[nH]c(=O)c1ccc(C(=O)N3CCC(C(N)=O)CC3)cc12,x,5.3
CCNc1oc(-c2ccc(S(=O)(=O)N3CCc4ccccc4C3)cc2)nc1C#N,-0.03,-1.9
COc1ccc(-c2nnc(N3CCOCC3)c3ccccc23)cc1,-0.19,-0.13
COC(=O)CC1Oc2ccccc2-n2cc(-c3ccc(Cl)cc3)nc21 (configuration not stated),-0.63,0.02
Cn1c(=O)c2sccc2n2c(CCC(=O)N3CCN(C(=O)c4ccco4)CC3)nnc12,x,-0.09
CCCc1nn2c(=O)cc(CSc3nc(-c4ccccc4F)nc4cc(=O)[nH]n34)nc2s1,x,0.68
CC(=O)c1c(CSc2ccccc2)oc2ccc(O)c(CN(C)C)c12,-0.98,x
N#C/C(=C\c1c(F)cccc1Cl)S(=O)(=O)Cc1ccco1,-0.52,x
CC(=O)Oc1cc(OC(C)=O)c2c(-c3ccccc3)cc(=O)oc2c1,-1.4,x
CSc1cccc(NC(=O)C2CCN(S(=O)(=O)c3ccc4c(c3)NC(=O)CS4)CC2)c1,x,1.4
CCOC(=O)N1CCN(S(=O)(=O)c2cc(Br)cc3c2N(C(=O)CC)CC3)CC1,-0.49,1.5
Cn1c(=O)c2c(-c3ccc(C(C)(C)C)cc3)n(C(C)(C)C)cc2n(C)c1=O,-2.1,1.2
O=C(Nc1nnc(SCc2nnc(-c3ccccc3)o2)s1)c1ccccc1,x,1.1
Cc1ncc(-c2ccc(C)c(S(=O)(=O)Nc3ccc(-c4ccno4)cc3)c2)o1,x,2.4
CCN(CC)c1ccc(CN(C(=O)c2cc(=O)c3ccc(C)c(C)c3o2)C2CCS(=O)(=O)C2)cc1 (configuration not stated),-0.52,0.4
Cc1cc(C(=O)C(=O)Nc2nccs2)c(C)n1-c1ccc(Cl)cc1,-1.2,2.9
Cc1ccc2nc(Nc3ccc(Br)cc3)c3nncn3c2c1,-0.85,0.5
COc1ccc(-c2noc(N3CCOCC3)n2)cc1OC,x,0.96
O=C1CCc2cc(S(=O)(=O)N3CCN(c4cccc(Cl)c4)CC3)ccc2N1,-0.75,x
CC(C)NC(=O)C12CC3(C)CC(C)(CC(C)(C3)C1)C2,-4.4,x
COc1oc(-c2ccc(F)cc2)nc1C(F)(F)F,-2.5,-4.3
Cc1cc(C)cc(NC(=O)N2CCCn3nc(-c4cccn4C)cc32)c1,x,0.22
CC1Sc2ccc(S(=O)(=O)N(C)Cc3ccco3)cc2NC1=O (configuration not stated),x,0.34
C=CCn1c(=S)[nH]c2c(c1=O)C1(CCCCC1)Cc1ccccc1-2,-0.77,x
CCCCCCCCCCCCCCCCCCOC[C@H](COP(=O)([O-])OCC[N+](C)(C)C)OC,-1.8,x
CC(C)n1cnc2nc(CSc3ccc(NC(=O)COc4ccc(Cl)cc4)cc3)cc(=O)n21,-2.4,1.5
Cc1cc(C)c(S(=O)(=O)N2CSC[C@@H]2C(=O)NCc2csc(-c3cccs3)n2)c(C)c1,x,0.26
Cc1nnc2sc(COc3ccc(Br)cc3)nn12,-1.6,-1
Cc1ccc(C2Nn3c(C)nnc3SC2C(=O)Nc2ccc(Br)cc2)cc1 (configuration not stated),0.01,1.6
Clc1cccc(/C=C/c2nn3c(-c4ccncc4)nnc3s2)c1,0.91,-2.2
Cc1ccc(Sc2cc(C(=O)NCCN(C)C)c3ccccc3n2)cc1,-1.7,x
Cc1ccc(Cn2ccc(NC(=O)C3=CC(c4cccs4)=NS(=O)(=O)N3C)n2)cc1,-3.1,2.4

# Compound profiles, as listed above. Order of screens: CDC25B-CDK2 inh | HIV TAR-Tat
# `CC(C)NC(=O)C12CC3(C)CC(C)(CC(C)(C3)C1)C2` is listed as -4.4 | x
# `Cc1cc(C)cc(NC(=O)N2CCCn3nc(-c4cccn4C)cc32)c1` is listed as x | 0.22

# 17 of the compounds above, as tab-separated lines.
molecule	CDC25B-CDK2 inh	HIV TAR-Tat
O=C(Nc1nnc(SCc2nnc(-c3ccccc3)o2)s1)c1ccccc1	x	1.1
Cc1ncc(-c2ccc(C)c(S(=O)(=O)Nc3ccc(-c4ccno4)cc3)c2)o1	x	2.4
CCN(CC)c1ccc(CN(C(=O)c2cc(=O)c3ccc(C)c(C)c3o2)C2CCS(=O)(=O)C2)cc1 (configuration not stated)	-0.52	0.4
Cc1cc(C(=O)C(=O)Nc2nccs2)c(C)n1-c1ccc(Cl)cc1	-1.2	2.9
Cc1ccc2nc(Nc3ccc(Br)cc3)c3nncn3c2c1	-0.85	0.5
COc1ccc(-c2noc(N3CCOCC3)n2)cc1OC	x	0.96
O=C1CCc2cc(S(=O)(=O)N3CCN(c4cccc(Cl)c4)CC3)ccc2N1	-0.75	x
CC(C)NC(=O)C12CC3(C)CC(C)(CC(C)(C3)C1)C2	-4.4	x
COc1oc(-c2ccc(F)cc2)nc1C(F)(F)F	-2.5	-4.3
Cc1cc(C)cc(NC(=O)N2CCCn3nc(-c4cccn4C)cc32)c1	x	0.22
CC1Sc2ccc(S(=O)(=O)N(C)Cc3ccco3)cc2NC1=O (configuration not stated)	x	0.34
C=CCn1c(=S)[nH]c2c(c1=O)C1(CCCCC1)Cc1ccccc1-2	-0.77	x
CCCCCCCCCCCCCCCCCCOC[C@H](COP(=O)([O-])OCC[N+](C)(C)C)OC	-1.8	x
CC(C)n1cnc2nc(CSc3ccc(NC(=O)COc4ccc(Cl)cc4)cc3)cc(=O)n21	-2.4	1.5
Cc1cc(C)c(S(=O)(=O)N2CSC[C@@H]2C(=O)NCc2csc(-c3cccs3)n2)c(C)c1	x	0.26
Cc1nnc2sc(COc3ccc(Br)cc3)nn12	-1.6	-1
Cc1ccc(C2Nn3c(C)nnc3SC2C(=O)Nc2ccc(Br)cc2)cc1 (configuration not stated)	0.01	1.6

# (continued)
SMILES,CDC25B-CDK2 inh,HIV TAR-Tat
COCc1nc2ccccc2n1Cc1ccccc1F,1.6,-0.52
COc1ccc(/C=C/c2nc(C#N)c(NC3CC3)o2)cc1OC,-1.4,1
CCOc1ccc(NC(=O)C(C)n2nnc3sc4c(c3c2=O)CCCC4)cc1 (configuration not stated),-1.7,-0.64
CCOC(=O)Cc1nc2ccccc2[nH]1,0.72,0.98
CCOc1ccc(Cc2n[nH]c(=S)o2)cc1,-2.1,x
COc1ccc(N2C(=O)CC(Sc3nnc(N)s3)C2=O)cc1 (configuration not stated),-1.7,0.22
CCc1nnc(SCc2cccc(OC)c2)c2cc3occc3n12,x,0.43
COc1ccncc1C(=O)Nc1ccc(F)cc1F,-1.2,x
O=C(NCC(c1ccco1)N1CCOCC1)c1cc(-c2ccc3c(c2)OCCO3)on1 (configuration not stated),-1.1,0.14
CCC(=O)OCCNc1nc(SC)nc(-c2ccc(C(C)(C)C)cc2)c1C#N,-2.1,1.9
Cc1ccc(S(=O)(=O)NCCc2sc(-c3ccccc3)nc2C)cc1C,x,1.4
CCOc1ccc(N(C)S(=O)(=O)c2ccc3c(c2)NC(=O)CCS3)cc1,x,1.6
O=C1C=CC(=O)N1c1ccc(-n2nc(C(F)(F)F)cc2C(F)(F)F)cc1,-0.63,x
CC1=C(C(=O)N(CC(=O)NCc2cccs2)c2ccc(Cl)cc2)SCCO1,-1,1.9
O=C(Nc1nc(-c2cccs2)ns1)c1ccccc1Br,0.26,0.12
Cn1c(=O)c2c(SCC(=O)Nc3ccccc3)nc(-c3cccs3)nc2n(C)c1=O,-1.5,x
O=C(NCc1ccco1)c1cnc2ccccn2c1=O,-1.8,-0.18
O=C(Cn1c(=O)c2cccn2c2cccnc21)N1CCN(C2CCCCC2)CC1,x,-0.61
Cc1cc(NCC2CCCO2)n2nc(C(F)(F)F)c(-c3ccccc3Cl)c2n1 (configuration not stated),0.4,1.9
CCCCN(CCCC)S(=O)(=O)c1ccc2c(c1)CC(C)N2C(=O)C1CCC1 (configuration not stated),x,1.9
CCOC(=O)N1CCN(C(=O)c2[nH]nc3c2COc2ccccc2-3)CC1,x,-1.3
CC1CCCCC1NC(=O)c1cc2sccc2n1C (configuration not stated),0.23,1.1
Cn1c(=O)c2c(-c3ccccc3F)c(NCc3ccccc3)oc2n(C)c1=O,x,2.3
Cc1cc(NC(=O)Cc2cc(F)cc(F)c2)no1,-2.3,x
COc1ccc(CCNS(=O)(=O)c2ccc(-n3cnnn3)c(OC)c2)cc1OC,-0.26,-0.86
CCOc1ccc(-n2c(=S)sc3c(=O)[nH]c(SCC(=O)NCC4CCCO4)nc32)cc1 (configuration not stated),-1.5,1.1
CC12CN3CC(c4ccccc4)(CN(C1)C3c1ccc3c(c1)OCO3)C2=O (configuration not stated),-2.2,5.4
O=c1c2cccnc2nc(SCc2cc(=O)n3cc(Cl)ccc3n2)n1CC1CCCO1 (configuration not stated),0.27,0.56
Cc1oc2ncnc(N3CCOCC3)c2c1C(=O)O,-0.53,2
FC(F)(F)c1oc(-c2ccc(Cl)cc2)cc1-c1nnc(-c2ccco2)o1,0.48,x
COC(=O)c1c(N)sc2c1CC(C)(C)OC2,-1.1,-0.5
CC(C)NC(=O)c1ccc(NC2=NC3CS(=O)(=O)CC3S2)cc1 (configuration not stated),x,1.2
Cc1noc(NS(=O)(=O)c2ccc(NC(=O)c3sc4ccccc4c3Cl)cc2)c1C,-0.63,x
Cc1ccc(OCc2cc(=O)n3c(C)csc3n2)c(C)c1,-0.81,2
CCOc1ccc(/C=C/c2nc(C#N)c(NCc3ccccc3)o2)cc1,-1.9,0.24
COc1ccc(-c2noc(-c3nnn(-c4ccc(OC)cc4)c3N)n2)cc1,x,1
COc1ccc(C2C3=C(CC(C)(C)CC3=O)Nc3cc4c(cc32)OCO4)cc1 (configuration not stated),0.17,1.5
CCn1nc(-n2cnnc2)c(NS(=O)(=O)c2ccc(F)cc2)c1C,1.4,0.23
CC(=O)C(C#N)c1nc(-c2ccc(Cl)c(C)c2)cs1 (configuration not stated),-1.3,x
Cc1csc(NC(=O)CN2Cc3ccccc3C2=O)n1,x,0.75
COc1ccc2c(c1)c(N1CCCC1=O)c(C(=O)NCCc1ccco1)n2C,x,0.4
Cc1cc(NS(=O)(=O)c2ccc3c(c2)N(C)CCO3)ccc1Br,x,1.2
CC(C)Oc1ccc(C2C=C(C(=O)O)Nc3nnnn32)cc1 (configuration not stated),x,1.6
CSc1ccc(NC(=O)C2CCN(c3ncccn3)CC2)cc1,-3,-0.31
COc1cc(Cl)c(C)cc1Nc1cc(C)nc2nc(-c3ccco3)nn12,x,-1.2
COc1ccc(/C=C2\SC(=S)N(CCC(=O)Nc3nccs3)C2=O)cc1OC,-1.6,x
O=C(Cn1ncc2c1-c1ccccc1OC2)Nc1ccc2c(c1)OCCO2,1.2,0.29
CC(C)(C)SCCNC(=O)CN1C(=O)c2ccccc2S1(=O)=O,-0.75,0.37
COc1ccc(C2=NN(c3nc(C)cs3)C(c3ccccc3)C2)cc1 (configuration not stated),-1.7,1.2
CC1CCN(c2cc3c(cc2F)c(=O)c(S(=O)(=O)c2ccccc2)cn3C)CC1,x,-0.71
COc1ccc(CNc2nc3ccccc3c3nc(-c4ccccc4)nn23)cc1,-0.09,0.15
N#CC1=C(O)Cn2c1nc(=O)c1ccccc12,-2.1,1.9
COc1ccccc1NC(=O)c1nn(-c2cccc(Cl)c2)ccc1=O,-0.82,0.03
CC1CC(C)CN(C(=O)Cn2c(=O)sc3ccccc32)C1 (configuration not stated),-0.4,1.5
